Assay outcomes as filed in PubChem.
Rce1 inh = yeast Ras-converting enzyme inhibition; calls only; yeast membranes, quenched prenylated peptide cleavage fluorescence; AID 2563; Q03530; hit rate 0.27% among 290,000;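 active = fall in fluorescence gain of 50% or more versus controls, with final raw signal at or below 3038400; inconclusive = same 50% fall but final raw signal above 3038400; inactive = fall in fluorescence gain under 50%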;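 also: plate controls were neutral control wells for no effect and wells lacking membranes for full effect; tested at 10 µM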
CSC inhib = cancer stem cell inhibition; cancer stem cell-like cells viability, luminescence; hit rate 1.1% among 300,000; AID 2717; inhibition, % at 7.5 µM;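 active = mean at 75% or more and at least half the replicates too; inconclusive = mean and replicates disagree; tested in HMLE shEcad cells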;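 also: 0% = median of negative and 100% = median of positive control wells; the first replicate is given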
Yeast UUG start = alters start codon recognition fidelity in yeast | S. cerevisiae UUG-firefly luciferase reporter, luminescence/redox ratio | activity score, % at 18.7 µM | hit rate 0.13% among 350,000;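 active = replicate mean at a twofold rise or more, about +100% in these data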;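 also: firefly luciferase made from a UUG start codon reports start codon fidelity; reporter light over untreated wells divided by growth signal over untreated wells; some hits fall short of that in this replicate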
PABP polyA inh = blocks human PABP binding to poly(A) RNA | inhibition, % at 35 µM | fluorescence polarization | hit rate 1% among 290,000 | P11940 | AID 2014;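 active = 50% or more with normal probe brightness, or confirmed in later tests; inconclusive = above 50% with abnormal brightness, or retests that disagree; inactive = below 50% or failed in later tests; about a fifth of its hits are not listed in these tables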;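 also: calls also rest on retests at 20 µM and on dose response follow-up; controls were probe without protein and protein plus probe with vehicle; some compounds called inactive have numbers as strong as hits; many hits fall short of the cut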
Target sequence (P11940 whole entry, looked up): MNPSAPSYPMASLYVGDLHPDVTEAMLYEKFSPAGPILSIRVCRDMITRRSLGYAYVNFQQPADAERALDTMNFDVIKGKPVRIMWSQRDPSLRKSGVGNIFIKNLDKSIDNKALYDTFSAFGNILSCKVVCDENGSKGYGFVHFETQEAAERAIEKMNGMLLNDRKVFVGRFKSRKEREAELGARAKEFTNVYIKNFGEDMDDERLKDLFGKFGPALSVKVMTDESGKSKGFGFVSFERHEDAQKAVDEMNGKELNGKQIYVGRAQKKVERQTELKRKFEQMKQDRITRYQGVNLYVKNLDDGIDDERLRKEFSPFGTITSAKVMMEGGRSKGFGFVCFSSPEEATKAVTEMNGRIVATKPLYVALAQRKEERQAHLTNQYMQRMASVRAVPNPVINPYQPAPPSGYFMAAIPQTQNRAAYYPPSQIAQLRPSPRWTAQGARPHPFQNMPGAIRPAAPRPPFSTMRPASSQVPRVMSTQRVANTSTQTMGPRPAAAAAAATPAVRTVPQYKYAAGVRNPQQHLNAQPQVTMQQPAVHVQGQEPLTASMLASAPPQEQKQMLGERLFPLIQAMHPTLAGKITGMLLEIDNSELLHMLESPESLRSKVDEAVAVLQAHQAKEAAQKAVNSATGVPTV
HIV Env fusion = HIV envelope-mediated fusion inhibition; AID 651610; HeLa-JRFL Env/CEM21 cell fusion, luciferase; inhibition, % at 12.3 µM; hit rate 1.1% among 360,000;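 active = mean replicate inhibition score of at least 50 and every replicate individually at or above 50; inconclusive = only one of the two criteria met; inactive = mean below 50 and not all replicates reaching 50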;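 also: 0% = plate neutral controls and 100% = maraviroc near 300 nM; one replicate is shown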
eIF4H inh = inhibitors of RNA binding by human eIF4H | Q15056 | hit rate 0.94% among 290,000 | AID 2012 | eIF4H fluorescence polarization binding assay | inhibition, % at 35 µM;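 active = 50% or more with normal probe brightness, or confirmed in later tests; inconclusive = above 50% with abnormal brightness, or retests that disagree; inactive = below 50% or failed in later tests; about a fifth of its hits are not listed in these tables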;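 also: calls also rest on retests at 20 µM and on dose response follow-up; 0% = protein and probe with vehicle and 100% = probe without protein; strong numbers were not always called active; many hits fall short of the cut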
MT1-MMP act inh = inhibitors of human MT1-MMP activation. hit rate 0.061% among 360,000. HT1080 RFP-PRO-GFP cells, GFP/RFP ratio fluorescence, overnight; percent of plate control window, DMSO zero. GFP/RFP ratio change, % at 20 µM. AID 651647;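 active = GFP/RFP ratio change of at least 30% with cell ATP level not reduced by more than half and red fluorescence within 50% of control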; also: strong numbers were not always called active
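Material: RFP-PRO-GFP reporter HT1080 cells. Dosing: single-point 20 µM compound, 1% DMSO. Controls: DMSO and RFP-L50D-GFP cell wells. Timing: cells overnight before dosing, compound overnight, 37 °C, 5% CO2. Measure: GFP/RFP fluorescence ratio.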
MT1-MMP act inh RFP = further read-out of MT1-MMP act inh, marked with its call; RFP signal change, %; measured here: RFP expression control read;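 0 = vehicle wells; hits needed this value within 50% of zero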
* marks the source's active call; other numbers are inactive results; i = inactive; ? = inconclusive; . = not tested or not shown.

A first look (15 entries):
SMILES	Rce1 inh	CSC inhib	Yeast UUG start	PABP polyA inh	HIV Env fusion	eIF4H inh	MT1-MMP act inh	MT1-MMP act inh RFP
Clc1ccc(-c2nnnn2-c2ccc(Cl)cc2)cc1	i	-7	-18	-12	6	5	-1	0
O=C(Nc1cc(C(F)(F)F)cc(C(F)(F)F)c1)Nc1cnn(-c2ccc([N+](=O)[O-])cc2)c1C(F)(F)F	i	102*	-7	6	0	9	-14	-35
O=C(Nc1ccc(Cc2ccc(NC(=O)C3CC3)cc2)cc1)C1CC1	i	17	.	3	15	-4	-5	-3
CSc1n[nH]c(/N=C/c2oc(O)c3ccccc23)n1	i	-11	.	1	15	1	-1	0
COC(=O)c1ccc(CN(C(=O)N2CCN(C)CC2)S(=O)(=O)c2ccc(C)cc2)cc1	i	5	-9	.	8	.	5	5
CN(C)c1ccc(/C=N/NC(=O)CCc2nc3ccccc3[nH]2)cc1	i	-4	.	-3	1	-1	-2	-1
CC(=O)Nc1cc(S(=O)(=O)Nc2cccc(C)c2)c(C)cc1C	i	-4	-6	-2	.	-10	-2	4
CSc1nnc(Cc2cc(=O)[nH]c(=O)[nH]2)n1-c1cc(C)ccc1C	.	-3	0	-3	-68	2	1	5
CCOc1ccc(C(=O)CCC(=O)Nc2ccncc2)cc1	.	.	-7	.	22	.	3	1
COc1cc(C(=O)NCC(=O)NNC(=O)CN(C)S(=O)(=O)c2ccc(Cl)cc2)cc(OC)c1OC	.	10	-19	.	.	.	1	-1
O=C(c1cc(S(=O)(=O)N2CCOCC2)c(Cl)cc1Cl)N1CCCCC1	i	-3	-9	3	-2	-6	0	-1
COc1cc(N=Nc2cccc(S(N)(=O)=O)c2)c2ccccc2c1N	i	21	-9	-6	-22	-7	-29	18
Cc1cc(C)nc(N2CCC(C(=O)NCc3cccs3)CC2)n1	i	-10	-9	5	-5	-1	-3	0
CC1Cc2cc(S(=O)(=O)N3CCN(c4ccccc4F)CC3)ccc2N1C(=O)C1CC1 (stereo unspecified)	i	14	-18	-4	-7	-16	-3	-15
CC(C)COc1cccc(C(=O)NC(=S)Nc2cccc(NC(=O)c3ccccc3Cl)c2)c1	i	10	.	-11	21	-8	0	-3

All compounds of this part (from the top)
SMILES	Rce1 inh	CSC inhib	Yeast UUG start	PABP polyA inh	HIV Env fusion	eIF4H inh	MT1-MMP act inh	MT1-MMP act inh RFP
Clc1ccc(-c2nnnn2-c2ccc(Cl)cc2)cc1	i	-7	-18	-12	6	5	-1	0
O=C(Nc1cc(C(F)(F)F)cc(C(F)(F)F)c1)Nc1cnn(-c2ccc([N+](=O)[O-])cc2)c1C(F)(F)F	i	102*	-7	6	0	9	-14	-35
O=C(Nc1ccc(Cc2ccc(NC(=O)C3CC3)cc2)cc1)C1CC1	i	17	.	3	15	-4	-5	-3
CSc1n[nH]c(/N=C/c2oc(O)c3ccccc23)n1	i	-11	.	1	15	1	-1	0
COC(=O)c1ccc(CN(C(=O)N2CCN(C)CC2)S(=O)(=O)c2ccc(C)cc2)cc1	i	5	-9	.	8	.	5	5
CN(C)c1ccc(/C=N/NC(=O)CCc2nc3ccccc3[nH]2)cc1	i	-4	.	-3	1	-1	-2	-1
CC(=O)Nc1cc(S(=O)(=O)Nc2cccc(C)c2)c(C)cc1C	i	-4	-6	-2	.	-10	-2	4
CSc1nnc(Cc2cc(=O)[nH]c(=O)[nH]2)n1-c1cc(C)ccc1C	.	-3	0	-3	-68	2	1	5
CCOc1ccc(C(=O)CCC(=O)Nc2ccncc2)cc1	.	.	-7	.	22	.	3	1
COc1cc(C(=O)NCC(=O)NNC(=O)CN(C)S(=O)(=O)c2ccc(Cl)cc2)cc(OC)c1OC	.	10	-19	.	.	.	1	-1
O=C(c1cc(S(=O)(=O)N2CCOCC2)c(Cl)cc1Cl)N1CCCCC1	i	-3	-9	3	-2	-6	0	-1
COc1cc(N=Nc2cccc(S(N)(=O)=O)c2)c2ccccc2c1N	i	21	-9	-6	-22	-7	-29	18
Cc1cc(C)nc(N2CCC(C(=O)NCc3cccs3)CC2)n1	i	-10	-9	5	-5	-1	-3	0
CC1Cc2cc(S(=O)(=O)N3CCN(c4ccccc4F)CC3)ccc2N1C(=O)C1CC1 (stereo unspecified)	i	14	-18	-4	-7	-16	-3	-15
CC(C)COc1cccc(C(=O)NC(=S)Nc2cccc(NC(=O)c3ccccc3Cl)c2)c1	i	10	.	-11	21	-8	0	-3
CCCCn1c(C)cc(/C=C(\C#N)C(=O)O)c1C	i	17	.	0	12	?	3	-3
CCc1nn(C(C)C(=O)NCCc2ccc(OC)c(OC)c2)c(=O)c2cc3occc3n12 (stereo unspecified)	i	-8	4	-9	.	-3	-5	-3
COC(=O)c1ccc(NC(=O)CN2CCN(c3cccc(Cl)c3)CC2)cc1	i	.	0	-9	.	-7	3	3
CCOC(=O)C1(c2nc(N)cs2)COC(=O)C1 (stereo unspecified)	i	-10	-17	-4	-33	5	5	7
CCCCOc1ccc(NC(=O)C(=O)NCCCn2ccnc2)cc1	i	26	.	5	-107	-1	-3	-8
COc1ccc(C(=O)Nc2nc(-c3ccccn3)cs2)cc1S(=O)(=O)N1CCOCC1	.	25	-17	.	43	.	-3	-8
COc1ccccc1NS(=O)(=O)c1ccc(NC(=O)N2CCCCC2)cc1	i	1	-8	8	-24	6	4	-7
CC1CC1c1ccc(/C=C(\C#N)C(=O)Nc2ccccc2Cl)o1 (stereo unspecified)	i	8	.	-3	21	2	-4	-2
Cc1ccccc1N(C(=O)CNC(=O)c1ccco1)C(C(=O)NC1CCCCC1)c1ccncc1 (stereo unspecified)	i	40	-14	7	11	-8	-1	2
CCCOC(=O)c1ccc(Cl)c(NC(=O)c2cccnc2)c1	i	-1	.	5	.	-3	.	.
Cc1ccc(N2C(=O)CS(=O)(=O)CC2=O)cc1	i	0	-11	2	7	-5	2	1
O=C(COc1ccc(Cl)cc1Cl)N1CCCC1	i	1	-17	-1	.	0	0	-2
Cc1c(N)ccc(-n2nc3ccccc3n2)c1C	i	4	-2	.	-24	.	2	-4
Cc1cccc(C(C)Nc2ccc([N+](=O)[O-])cn2)c1 (stereo unspecified)	i	2	-23	7	-96	5	3	2
O=C(NCCF)[C@H]1C[C@@H]1[C@H](NP(=O)(c1ccccc1)c1ccccc1)c1ccccc1	i	-3	-14	-11	-12	-4	-3	-1
O=C(CSc1nc(N2CCOCC2)nc(N2CCOCC2)n1)Nc1ccccc1F	i	-7	-20	-4	0	-4	0	2
CC1CN(Cc2nc3c(c(=O)n(C)c(=O)n3C)n2Cc2ccccc2)CC(C)O1 (stereo unspecified)	i	7	13	-7	-2	-11	-2	2
COc1ccc(F)cc1C(=O)C1CCCN(C(=O)c2ccc(C(C)=O)s2)C1 (stereo unspecified)	i	.	-31	-3	10	-6	1	-3
O=C1/C(=C/c2ccccc2)CCC1C1CCCC1 (stereo unspecified)	i	-3	-19	-14	3	-7	9	1
O=C(NCc1ccccn1)c1ccc(Br)s1	i	-3	-28	-4	10	14	-1	1
Cc1ncc([N+](=O)[O-])n1CCOC(=O)C12CC3CC(CC(C3)C1)C2	i	-12	-9	-12	31	-12	-2	3
CCOc1ccc2nc(NC(=O)c3ccccn3)sc2c1	i	94*	-47	-5	9	2	10	-8
CCc1ccc(NC(=O)CSc2nc(=O)n(CCCN3CCOCC3)c3c2CCC3)cc1	i	-7	-10	.	-8	.	-1	-3
Nn1c(SCC(=O)Nc2nccs2)nnc1C1CC1	i	2	-16	-12	-5	-2	0	4
CCOc1ccc(S(=O)(=O)n2cc(-c3ccc(F)cc3)c(N)n2)cc1	i	12	-14	-6	-8	-2	-7	-5
CCOc1ccc(CN2CCN(Cc3cnc(-c4ccccc4)s3)CC2CCO)cc1 (stereo unspecified)	i	15	6	-9	29	8	-2	-6
O=C(OC(C(=O)NCC1CCCO1)c1ccccn1)c1cccs1 (stereo unspecified)	i	-2	-6	1	.	-13	-1	3
O=C(c1ccco1)N1CCCC(Nc2ccc3c(c2)OCCO3)C1 (stereo unspecified)	i	-12	-2	4	-15	4	2	4
O=C(CCN1CCN(c2ccccc2F)CC1)Nc1cccc(F)c1	i	.	-26	1	12	-10	6	2
CC1CCN(C(=O)COc2cccc3c2CCN(Cc2ccccc2)C3=O)CC1	i	25	-5	-1	10	10	7	-3
CC(C)(C)c1ccc(CSc2nc(N)cc(=O)[nH]2)cc1	i	-32	-1	-3	.	0	23	-24
Clc1ccc(CSc2nncn2-c2ccccn2)cc1	i	-15	-18	-8	-21	-1	1	-1
Cc1cccc(C)c1OCCSc1n[nH]c(N)n1	i	-18	-23	-8	.	6	5	11
Cc1ccccc1NC(=S)NCCc1ccccn1	i	-5	-20	-7	-8	0	6	5
COC(=O)CCN(C(=O)c1ccc(OC(C)=O)cc1)c1ccccn1	i	-7	-13	-4	1	-11	2	0
Remaining list, next part
SMILES	Rce1 inh	CSC inhib	Yeast UUG start	PABP polyA inh	HIV Env fusion	eIF4H inh	MT1-MMP act inh	MT1-MMP act inh RFP
CCCC1c2ccc(C)n2CCN1C(=O)Nc1ccc(F)cc1 (stereo unspecified)	i	-7	-10	?	.	?	-1	3
CCn1c(CC(=O)Nc2cccc(OC)c2)nnc1SCC(=O)N1CCN(c2ccccc2)CC1	i	4	-11	-6	-15	7	-6	-4
CC(C)CCN1C(=O)c2cccc3c(N)ccc(c23)C1=O	i	14	-23	.	3	.	-124	-3
Cc1ccc(-c2nnc(OCc3nc4ccccc4n3C)c3ccccc23)cc1	i	-4	.	.	-1	.	-1	-3
CCCC1CCc2[nH]nc(C(=O)NN)c2C1 (stereo unspecified)	.	-15	-18	.	-31	.	-2	6
CC(C)OC(=O)CSc1nc(Cc2cccs2)nc2ccccc12	i	11	.	2	15	-4	-6	4
CCOc1ccc2nc(NC(=O)c3ccc(C)o3)sc2c1	i	.	-18	.	-181	.	5	-5
CCOc1ccc(NC(=O)c2ccc(NC(=O)CSc3nc4ccccc4c(=O)[nH]3)cc2)cc1	i	7	.	3	4	-3	-3	1
CC1(C(=O)Nc2nnc(C(C)(C)C)s2)Cc2ccccc2C(=O)O1 (stereo unspecified)	i	.	-2	-4	-8	-10	4	2
Cc1oc(S(=O)(=O)N2CCCCC2)cc1NC(=O)Nc1ccccc1	i	-4	.	-4	4	-11	3	2
O=C(N/N=C/c1ccc(-c2cccc([N+](=O)[O-])c2)o1)[C@H]1C[C@@H]1c1ccccc1	i	15	.	4	1	-7	4	-5
CC1CC(C)(C)Nc2ccc(OC(=O)c3ccco3)cc21 (stereo unspecified)	i	11	-1	-9	.	-9	-78	29
N#Cc1c(-c2ccco2)nc(SCC(=O)Nc2ccc(S(N)(=O)=O)cc2)[nH]c1=O	i	13	.	6	.	5	.	.
CCOc1ccc(NC(=O)COC(=O)Cn2nc(C)c([N+](=O)[O-])c2C)cc1OCC	.	-15	-6	.	.	.	-1	3
C=CCOC(=O)C(C#N)c1nc2ccccc2nc1N1CCCC1 (stereo unspecified)	i	.	-4	11	.	3	-2	2
O=c1cc(-c2ccc(O)c(O)c2)oc2cc(O[C@@H]3O[C@H](CO)[C@@H](O)[C@H](O)[C@H]3O)cc(O)c12	.	-3	-13	.	.	.	-60	-8
CCSc1nnc(NC(=O)C2CC2c2ccccc2)s1 (stereo unspecified)	i	-5	.	32	1	2	7	7
COCCN=C1Sc2nc3cc4c(cc3cc2CN1CC1CCCO1)OCO4 (stereo unspecified)	i	-11	.	8	2	4	3	3
